Screening results (PubChem)
KCNQ2 block – KCNQ2 potassium channel inhibitors, primary screen, cell-based, CHO-K1, FluxOR thallium flux, B-score (AID 2156) | 310,000 compounds, 1.1% hits | B-score at 10 µM | O88943 | 20 min; hits give low values; only compounds with negative scores are shown here; some inactives read as strong as hits;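 active means fluorescence ratio B-score at most minus 3 library SDs, with starting brightness B-score within 2 library SDs, cut at about -5.5 in these data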
Target sequence (O88943 whole entry, looked up): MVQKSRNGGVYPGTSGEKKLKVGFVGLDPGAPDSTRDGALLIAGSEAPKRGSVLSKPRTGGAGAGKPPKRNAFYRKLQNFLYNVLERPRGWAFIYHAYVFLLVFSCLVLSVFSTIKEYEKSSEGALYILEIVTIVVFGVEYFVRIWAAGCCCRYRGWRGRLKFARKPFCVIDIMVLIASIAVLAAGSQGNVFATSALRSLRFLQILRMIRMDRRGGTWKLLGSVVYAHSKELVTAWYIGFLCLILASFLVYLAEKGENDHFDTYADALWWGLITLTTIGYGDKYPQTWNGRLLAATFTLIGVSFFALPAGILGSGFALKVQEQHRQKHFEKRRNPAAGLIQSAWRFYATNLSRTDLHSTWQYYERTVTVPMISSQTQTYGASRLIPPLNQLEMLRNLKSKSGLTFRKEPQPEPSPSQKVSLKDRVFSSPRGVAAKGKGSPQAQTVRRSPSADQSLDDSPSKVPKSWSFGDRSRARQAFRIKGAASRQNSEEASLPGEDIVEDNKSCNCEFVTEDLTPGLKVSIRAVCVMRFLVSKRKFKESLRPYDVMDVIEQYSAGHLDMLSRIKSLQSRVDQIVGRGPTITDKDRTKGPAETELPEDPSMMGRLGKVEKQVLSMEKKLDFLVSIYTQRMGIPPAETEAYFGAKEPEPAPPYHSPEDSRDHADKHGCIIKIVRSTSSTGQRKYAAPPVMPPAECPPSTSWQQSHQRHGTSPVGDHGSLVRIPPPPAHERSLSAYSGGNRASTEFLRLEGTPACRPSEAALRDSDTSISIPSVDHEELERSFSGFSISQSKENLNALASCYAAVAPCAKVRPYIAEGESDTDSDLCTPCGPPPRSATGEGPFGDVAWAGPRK
KCNQ2 block baseline – further read-out of KCNQ2 block, marked with its call; B-score; measured here: initial fluorescence intensity artifact check;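 brightness before thallium and not channel activity; 0 = typical well and far values either way flag optical interference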
* marks the source's active call; other numbers are inactive results; i = inactive.

SMILES,KCNQ2 block,KCNQ2 block baseline
COC(=O)c1sc2ccccc2c1NC(=O)c1ccc(S(=O)(=O)N2CCCC(C)C2)cc1 (configuration not stated),i,-0.65
O=C(COC(=O)/C=C/c1ccc([N+](=O)[O-])cc1)NC(c1ccccc1)c1ccccc1,i,-2.5
CN(Cc1ccsc1)C(=O)CCc1nnc(Cc2c[nH]c3ccccc23)o1,i,2.3
CCC(C)NC(=O)C1CCN(S(=O)(=O)c2cccnc2)CC1 (configuration not stated),i,-0.62
Cc1ccc(C(=O)N/C(=C\c2cn(-c3ccccc3)nc2-c2ccccc2)C(=O)N2CCOCC2)cc1,i,-0.33
Cc1ccc(C)c(N2CCN(C(=O)CCNC(=O)Cn3ccc4ccccc4c3=O)CC2)c1,i,-0.29
CC(C)C(NC(=O)CCN1C(=O)c2ccccc2C1=O)c1ccccc1 (configuration not stated),i,0.71
COc1cc(NC(=O)COC(=O)/C=C/c2ccc(OC)c(OC)c2)cc(OC)c1,i,-0.38
NS(=O)(=O)c1ccc(CCNC(=O)C2CCN(S(=O)(=O)c3c(Cl)cccc3Cl)CC2)cc1,i,-0.02
NC(=O)c1nsc(C(=O)N(CCc2ccccc2)C(C(=O)NC2CCCC2)c2ccco2)c1N (configuration not stated),i,-0.06
CC(C)C(=O)NC(c1ccccc1Cl)c1c(O)ccc2ccccc12 (configuration not stated),i,0.08
CCc1nnc(SCc2ccc(C(=O)OC)o2)n1N,i,1.1
CCCCCCSc1cccc(-c2nc3ccc(Cl)cn3c2NCc2ccccc2)c1,i,1
C/C(=N\NC(N)=S)c1ccccc1,i,0.35
COc1ccc(OCC(=O)OC2CCN(C)CC2)cc1,i,0.43
Cn1cc(C(=O)N2CCN(c3cccc(Cl)c3)CC2)c(=O)c2cc(S(=O)(=O)N3CCOCC3)ccc21,i,0.52
COCCCn1c(C2CCCCC2)nc2oc3cc(OC)ccc3c(=O)c2c1=O,i,-0.08
CCO[C@@H]1OC(C(=O)N2CCCCCCC2)=C[C@H](c2cn(C(C)=O)c3ccccc23)[C@H]1CCCO,i,0.24
Cn1cnnc1SCC(=O)Nc1cc(C(F)(F)F)ccc1N1CCOCC1,i,0.42
O=C(NCc1cccs1)C(=O)NCC1OCCCN1S(=O)(=O)c1ccccc1 (configuration not stated),i,2
COc1ccc(CNC(=O)c2c([S-])n(-c3ccc(C)cc3)c3cccc[n+]23)cc1,i,3.1
CC1COC(c2cccn2Cc2ccccc2Cl)=N1 (configuration not stated),i,-2.1
Cc1ccc(NC(C)c2cc(Cl)ccc2O)cc1 (configuration not stated),i,-1.9
COc1cccc(C2C(C(N)=O)=C(C)Nc3nc(-c4cccc(Cl)c4)nn32)c1 (configuration not stated),i,3.8
CN(C)/N=C/c1cc([N+](=O)[O-])ccc1O,i,0.93
COCCNC(=O)COc1ccccc1C,i,1.4
O=C(c1ccccn1)N1CCN(c2cccc(C(F)(F)F)c2)CC1,i,0.92
COc1ccc(C2CC(=O)Nc3n[nH]c(-c4ccccc4)c32)cc1OC (configuration not stated),i,1.5
O=C(Nc1nnc(SCc2ccc(F)cc2)s1)c1ccc2c(c1)C(=O)N(c1ccccc1Cl)C2=O,i,1
O=C(CN1CCN(S(=O)(=O)c2ccccc2)CC1)Nc1ccc2c(c1)OCO2,i,-0.58
COc1ccccc1NC(=O)C(NC(=O)c1ccc(C)cc1)c1ccccc1 (configuration not stated),i,-0.69
CCSc1cc(N2CCCC2)nc(-c2ccc(C)cc2)n1,i,0.98

Three compounds from above, sorted by the number in KCNQ2 block baseline, falling:
mol | KCNQ2 block baseline
CN(Cc1ccsc1)C(=O)CCc1nnc(Cc2c[nH]c3ccccc23)o1 | 2.3
Cc1ccc(C(=O)N/C(=C\c2cn(-c3ccccc3)nc2-c2ccccc2)C(=O)N2CCOCC2)cc1 | -0.33
O=C(CN1CCN(S(=O)(=O)c2ccccc2)CC1)Nc1ccc2c(c1)OCO2 | -0.58

Next structures follow:
SMILES,KCNQ2 block,KCNQ2 block baseline
O=c1c2cc(Br)ccc2[nH]c(=S)n1Cc1ccccn1,i,1.7
O=C(Nc1cc(S(=O)(=O)N2CCOCC2)ccc1N1CCCC1)C1CC1,i,5.4
CS(=O)(=O)N(CC(=O)Nc1cccc(Cl)c1Cl)c1ccccc1,i,0.58
COc1ccc(-n2c(COc3ccc(Cl)cc3)nnc2SCc2ccc(C#N)cc2)cc1,i,-0.88
Cc1ccc(-c2csc(NC(=O)c3ccc(S(=O)(=O)N4CCc5ccccc54)cc3)n2)cc1,i,0.26
O=C(CCCN1C(=O)/C(=C/c2cccs2)SC1=S)Nc1ccc(C(=O)O)cc1,i,-1.4
COc1ccc(Cc2nnc(NC(=O)c3cc(OC)c(OC)c(OC)c3)s2)cc1OC,i,-0.23
COc1cccc(NC(=O)CN2CCN(CC(=O)Nc3ccccc3Cl)CC2)c1,i,-0.17
O=C(Nc1nonc1-c1ccc(F)cc1)c1ccco1,i,-1.3
O=C(COc1ccc(Br)cc1CNCCc1ccccc1)NCc1ccccc1,-7.6*,-0.01*
CCOc1ccc(S(=O)(=O)NCc2ccc3c(c2)OCO3)cc1C,i,0.48
COc1ccc(C(=O)N/N=C\c2ccc(OC)c(COc3ccccc3Br)c2)c(OC)c1,i,0.03
Cc1ccccc1C(=O)N1CCC(n2nccc2NC(=O)CCOc2ccccc2)CC1,i,1.2
COc1cc(CNCc2ccco2)ccc1OCc1ccccc1,i,0.75
COc1cc(C2C3=C(CC(C)(C)CC3=O)N(C)C3=C2C(=O)CC(C)(C)C3)ccc1O,i,1.8
Cc1ccccc1NC(=O)CSc1nnc(C)c2ccccc12,i,0.27
CC1=Nc2ccccc2N=C(NC(=O)CSC(=S)N2CCN(C)CC2)C1c1ccccc1 (configuration not stated),i,1
Cc1c(NC(=O)C(C)C)cccc1-c1nc2ncccc2o1,i,1.1
CC(C)N(C(=O)CSc1nc2ccccc2n1Cc1ccccc1F)C(C)C,i,-0.47
Cc1ccc(C(=O)N2CCc3ccccc32)cc1,i,-2.6
O=[N+]([O-])/C(C(Cl)=C(Cl)Cl)=C(\Sc1ccccc1)N1CCCCC1,i,0.72
CC(Oc1ccc(Br)cc1)C(=O)NCc1ccccn1 (configuration not stated),i,-0.75
Cc1cc(C(=O)N/N=C/c2cccc([N+](=O)[O-])c2)c2ccccc2n1,i,0.04
COc1ccc(C2CC(=O)C=C(NCc3ccccc3)C2)cc1 (configuration not stated),i,-0.67
COc1cc(NC(=S)N2CCCCC2C)cc(OC)c1OC (configuration not stated),i,0.5
CN(C)c1ccc(/C=N/n2cnn(Cc3ccccc3Cl)c2=S)cc1,i,-1.8
COc1cc2c(cc1OC)C(COc1cc(C)cc(C)c1)N(C(C)=O)CC2 (configuration not stated),i,0.37
CCOC(=O)c1sc(NC(=O)Cc2ccccc2OC)nc1C,i,0.85
Cc1ccc(OCc2nnc(SC3CCc4ccccc4C3=O)n2C)cc1 (configuration not stated),i,-1.4
CC1=C(C(=O)Nc2ccccc2)C(c2ccc(N(C)C)cc2)NC(=O)N1 (configuration not stated),i,-2.6
CCCSc1nsc(NC(=O)c2cccnc2OCC)n1,i,-0.63
CC1(C)Cc2ccccc2/C(=C/C(=O)c2ccccc2)N1,-5.7*,0.49*
COc1ccc(OC)c(S(=O)(=O)NCCS(=O)(=O)N2CCN(c3ccccc3)CC2)c1,i,-0.76
CCOC(=O)C1(Cc2ccccc2C(F)(F)F)CCN(C2CCSC2)CC1 (configuration not stated),i,-0.3
CCN(CC)S(=O)(=O)c1ccc2oc(SCC3CN=C(c4ccc(OC)cc4)S3)nc2c1 (configuration not stated),i,2.2
O=C(Cc1n[nH]c(=O)[nH]c1=O)N/N=C/c1cccc(Cl)c1,i,0.85
C(=C\c1nc(N2CCCCCC2)c2ccccc2n1)/c1ccccc1,i,-0.88
Cc1ccccc1OCC(=O)Nc1ccc(C)c(S(=O)(=O)N2CCCCCC2)c1,-6.1*,0.36*
Brc1ccc(-c2c[n+]3c(n2-c2ccccc2)SCC3)cc1,i,0.6
COc1ccc(C(=O)COC(=O)c2ccco2)cc1,i,0.06
COc1ccc(S(=O)(=O)NCC(c2cccnc2)N2CCN(c3ccccc3)CC2)cc1C (configuration not stated),i,1.1
Cc1cc(-c2n[nH]c(=S)n2-c2ccc(F)cc2)nn1C,-6.3*,-1.2*
CCOC(=O)c1c[nH]n2c(=O)cc(C)nc12,i,-0.29
C#CCn1c(=NC(=O)c2cccs2)sc2cccc(OCC)c21,i,0.72
O=C(CCc1c[nH]c2ccccc12)NCCc1ccccc1,i,0.66
O=C(NC1(C(F)(F)F)N=C2SCCN2C1=O)C1CCCCC1 (configuration not stated),i,1.5
CCOc1ccc(NC2c3ccccc3C(=O)N2c2ccc(Cl)cn2)cc1 (configuration not stated),i,-0.62
CCc1ccc(NC(=O)CSc2nc3ccccc3nc2N2CCCCC2)cc1,i,-0.93

Some of the entries above, set out differently.
Structure: CCOC(=O)c1c[nH]n2c(=O)cc(C)nc12
  KCNQ2 block: i | KCNQ2 block baseline: -0.29

Structure: CCc1ccc(NC(=O)CSc2nc3ccccc3nc2N2CCCCC2)cc1
  KCNQ2 block: i | KCNQ2 block baseline: -0.93

Structure: C#CCn1c(=NC(=O)c2cccs2)sc2cccc(OCC)c21
  KCNQ2 block: i | KCNQ2 block baseline: 0.72

Structure: COc1ccc(S(=O)(=O)NCC(c2cccnc2)N2CCN(c3ccccc3)CC2)cc1C (configuration not stated)
  KCNQ2 block: i | KCNQ2 block baseline: 1.1

Continuation.
SMILES,KCNQ2 block,KCNQ2 block baseline
CCOc1ccc(N2C(=O)CC(N3CCC(O)(c4ccc(Br)cc4)CC3)C2=O)cc1 (configuration not stated),i,-0.98
COc1ccc(C2c3c(ncn(CCCO)c3=N)Oc3ccc4ccccc4c32)cc1 (configuration not stated),i,-0.33
COc1ccccc1NC(=O)Cn1nnc(-c2ccccc2NC(=O)c2ccco2)n1,i,0.53
O=C1c2ccccc2S(=O)(=O)c2cc(C(=O)N3CCC(N4CCCC4)CC3)ccc21,i,0.73
Cc1ccc[n+](CC(=O)Nc2ccc(N(C)C)cc2)c1,i,0.99
CC(C(=O)NC1CCCCC1)N(Cc1ccccc1)C(=O)c1snc(C(N)=O)c1N (configuration not stated),i,0.02
CS(=O)(=O)N(CC(=O)N1CCc2ccccc2C1)c1ccc(Cl)cc1F,i,1.9
COc1ccc(N(C(=O)C(C)C)S(=O)(=O)c2cccc3cccnc23)cc1,i,-0.01
Cc1cc(C)cc(NC(=O)CN2CCc3ccccc3C2)c1,i,-0.38
Cc1ccc(S(=O)(=O)N(CCO)c2cc3c(s2)CCCC3)cc1,i,-2.4
CC1=CN2C(=N)/C(=C\c3cn(CCCOc4ccccc4)c4ccccc34)C(=O)N=C2S1,i,0.2
O=C(NC1=NCCS1)c1cccs1,i,0.81
COc1ccc(/C=C(/NC(=O)c2ccco2)C(=O)N2CCc3ccccc32)cc1OC,i,1.5
CC(=O)C1=C(O)CCC1=N,i,2.1
COc1ccc(CCNC(=O)c2ccc(-c3ccc([N+](=O)[O-])cc3Cl)o2)cc1OC,i,-1.5
COC(=O)Cn1c2ccc(F)cc2c2nc(C)sc21,i,1.5
Cc1cc2oc(C(=O)Nc3ccc(S(=O)(=O)Nc4nccs4)cc3)cc(=O)c2cc1Cl,i,1.8
CCOc1ccc(NC(=O)CN2CCN(CC(=O)Nc3ccc(N(C)C)cc3)CC2)cc1,i,-1.1
Fc1ccc(NC(=S)N2CCN(c3ccccn3)CC2)cc1Cl,i,0.42
CCc1nnc(NC(=O)/C=C/c2ccc(C)o2)s1,i,0.99
CCc1ccc(NC(=O)c2cc(C)no2)cc1,i,0.01
C=CCn1c(SCc2cc(C(=O)OC)c(C)o2)nnc1-c1ccncc1,i,2.7
O=C(CN(C(=O)CCC(=O)Nc1nccs1)c1cccc(F)c1)NCc1ccccc1,i,-0.53
CCNC(=O)n1nccc1C(C)Oc1ccc(Cl)cc1 (configuration not stated),i,0.13
CCCNC(=O)Cc1ccsc1,-7.8*,-0.52*
CCOc1cc(C(=O)Nc2ccc(S(=O)(=O)Nc3cc(C)on3)cc2)cc(OCC)c1OCC,i,3.8
Cc1ccc(O)c(N=CC2=C(O)c3ccccc3C2=O)c1,i,-1.3
O=[N+]([O-])c1c(NCCO)cc(Sc2nc3ccccc3s2)c2nonc12,i,-1.7
Cc1ccc(/C(N)=N/OC(=O)/C=C/c2ccccc2)cc1,i,2.2
CCn1c(=O)cc(OCC(=O)NCCCN2CCN(c3cccc(Cl)c3)CC2)c2ccccc21,i,0.28
CCN(CC)C(=O)Oc1cc2c(-c3cc4cccc(OC)c4o3)cc(=O)oc2cc1C,i,2.8
O=C(NP(=O)(N1CCOCC1)N1CCOCC1)C1=C(N2CCOCC2)/C(=C\c2ccccc2)CC1,i,-1.4
CCOC(=O)C1CCCN(CC(O)COc2ccc(OC)cc2C(C)(C)C)C1 (configuration not stated),i,-0.01
CCCOC(=O)C(C)Sc1n[nH]c(=O)[nH]c1=O (configuration not stated),i,0.49
O=C1c2ccccc2C(=O)N1CCC(c1ccccc1)c1ccco1 (configuration not stated),i,-0.1
FC(F)(F)c1ccccc1/C=N/N1CCN(Cc2ccccc2)CC1,i,-0.45
COc1ccccc1C(=O)NCCSCc1c(F)cccc1Cl,i,-2.5
CCSc1nnc(NC(=O)c2ccccn2)s1,i,1.7
O=c1c2c(nc3nc(NCc4cccc(Cl)c4)[nH]n13)CCC2,i,0.02
CCOC(=O)CN1C(=O)N[C@@H](c2ccc(Br)cc2)C(C(=O)OC)=C1C,i,-0.32

A portion of the library; count on the stated rates, not on these rows.
